Mtb H37Rv: Mycobacterium tuberculosis H37Rv growth inhibition, cell based, confirmatory dose response (AID 1949); 100,000 compounds, 1.6% hits; inhibition, % at 10 µg/mL; hits with a dose series show IC50 in µg/mL; most inactive calls were filed without a number and no value below 0 was filed;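 active = confirmed in a dose series; inconclusive = about 50% or more but not retested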;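 note: bacteria grown 7 days with compound before Alamar blue readout; 0% = untreated bacteria and 100% = reference antibiotic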
The depositor's hits bear a star; i = inactive; ? = inconclusive.

SMILES | Mtb H37Rv
O=C(NCc1ccncc1)c1ccc(CN2CCC(Cc3ccccc3)CC2)cc1 | i
COCc1cc(C)nc2sc(C(=O)Nc3ccccc3N3CCOCC3)c(N)c12 | i
O=C(NCCCN1CCCC1=O)NC12CC3CC(CC(C3)C1)C2 | i
O=C(O)CC(Cc1ccc(Br)cc1)C(=O)Nc1cccc(C(F)(F)F)c1 (centres undefined) | i
O=C(Nc1ccc(C(=O)N2CCCCC2)cc1)c1ccccc1I | i
COC(=O)c1ccc(OCC(=O)NCc2ccco2)c(OC)c1 | i
CCOc1ccccc1NC(=O)NNC(=O)COc1cccc(C)c1C | i
CC(C)(C)c1ccc(C(=O)Nc2nc3ccccc3[nH]2)cc1 | <0.1µg/mL*
CC(=O)Nc1ccc(S(=O)(=O)Oc2ccc(C=C3C(=O)c4ccccc4C3=O)cc2)cc1 | i
C=CCn1c(=O)c2c3c(sc2n2c(Nc4ccc(C(=O)OCC)cc4)nnc12)CCCC3 | i
O=C(CSCc1c(Cl)cccc1Cl)NC1CC1 | i
CCOc1ccc(C(=O)NC(=S)Nc2nc(-c3ccc(OC)cc3)cs2)cc1Br | i
CCOC(=O)c1ccccc1NC(=O)C(c1ccccc1)c1ccccc1 | i
O=c1c2c(-c3ccc(Br)cc3)csc2ncn1Cc1c(F)cccc1Cl | i
N/C(=N\OC(=O)Cc1cccs1)c1ccccc1 | i
O=C(Nc1ccc(-c2nnc(-c3ccco3)o2)cc1)c1ccccc1Br | 43%
Cn1c(CN2CCCCC2)nc2cc([N+](=O)[O-])ccc21 | i
CCOCCCNC(=S)Nc1cc(C)cc(C)c1 | i
COc1ccc(S(=O)(=O)N2CCCC(C(=O)NCc3cccnc3)C2)cc1 (centres undefined) | 4%
Cc1occc1C(=O)NCc1cccc(Cl)c1 | 13%
C=CCOc1ccc(NC(=O)C2CC(=O)N(c3ccccc3F)C2)cc1 (centres undefined) | i
CCn1c(SCc2ccc3ccccc3c2)nnc1-c1ccc(Cl)cc1 | 20%
Cc1ccc(CSCC(=O)Nc2ccccc2C(=O)O)cc1 | 4%
N#C/C(=C/c1c(F)cccc1Cl)c1ccc(C(=O)O)cc1 | 2%
CCCC(=O)Nc1ccc(C(=O)/C=C/c2ccc(Cl)cc2Cl)cc1 | 25%

Quoted at random: six compounds from above, in no set order.
SMILES | Mtb H37Rv
N/C(=N\OC(=O)Cc1cccs1)c1ccccc1 | i
CCCC(=O)Nc1ccc(C(=O)/C=C/c2ccc(Cl)cc2Cl)cc1 | 25%
C=CCn1c(=O)c2c3c(sc2n2c(Nc4ccc(C(=O)OCC)cc4)nnc12)CCCC3 | i
C=CCOc1ccc(NC(=O)C2CC(=O)N(c3ccccc3F)C2)cc1 (centres undefined) | i
Cc1occc1C(=O)NCc1cccc(Cl)c1 | 13%
CCOCCCNC(=S)Nc1cc(C)cc(C)c1 | i

Carrying on.
SMILES | Mtb H37Rv
CCOC(=O)N1CCN(C(=O)c2ccc(OC)c(I)c2)CC1 | 2%
CC1=C(C(=O)OC(C)C)C(c2ccc(Cl)cc2)NC(=S)N1 (centres undefined) | 3%
Cc1c(NC(=S)NC(=O)c2cccs2)cccc1C(=O)O | i
O=C(Cc1cccs1)Nc1ccc(Br)cc1C(=O)O | 8%
COc1cc(CO)cc(I)c1OCc1cccc2ccccc12 | i
COc1ccc(NC(=O)c2ccccc2NC(=O)COc2cc(C)cc(C)c2)cc1 | i
Clc1ccc(CSc2nnc(-c3ccccc3)o2)cc1Cl | i
COc1cccc(NC(=O)CCC2CCCCC2)c1 | i
Cc1ccccc1C(=O)Nc1cc(NC(=O)c2ccccc2C)cc(C(=O)NC(C)(C)C)c1 | i
COc1ccc(-c2cc(=O)oc3cc(OCc4ccccc4)ccc23)cc1 | i
CCOC(=O)c1c(N)sc2c1CCCC2 | i
Cc1cc(Cl)ccc1OCC(=O)n1nnc2ccccc21 | i
CCCC(=O)Nc1cccc(C(=O)NCC(C)C)c1 | 2%
COc1cccc(C(=O)Nc2cccc(N)c2)c1 | i
O=c1oc2ccccc2c2c1nnn2CCCN1CCOCC1 | 3%
COc1ccc(OC)c(NC(=O)CSc2nnnn2C)c1 | i
COc1ccc(C(NC(=O)c2ccco2)c2ccc(OC)c(OC)c2)cc1 (centres undefined) | i
O=C(NCCN1CCCC1)C1c2ccccc2Oc2ccccc21 | 3%
COc1ccc(NC(=S)NC2CCCC2)c(OC)c1 | i
CCOC(=O)c1c(NC(=O)c2cccs2)sc(C(=O)N(C)C)c1C | i
Cc1cc(C)cc(C(=O)NC(=S)Nc2ccc3c(c2)C(=O)N(C)C3=O)c1 | i
Cc1c(C(=O)N/N=C/c2ccccc2O)nnn1-c1nonc1N | i
O=C(COc1cc(Cl)c(Cl)cc1Cl)Nc1cc(Cl)ccc1Cl | i
COc1cc(S(=O)(=O)NCc2cccs2)ccc1Br | 5%
Cn1nnnc1SCC(=O)Nc1ccc2nc(SCC(=O)NCc3ccccc3)sc2c1 | i

Part of the list above, in markdown:
| molecule | Mtb H37Rv |
| --- | --- |
| Cc1c(NC(=S)NC(=O)c2cccs2)cccc1C(=O)O | i |
| COc1ccc(-c2cc(=O)oc3cc(OCc4ccccc4)ccc23)cc1 | i |
| COc1cc(S(=O)(=O)NCc2cccs2)ccc1Br | 5% |

(further entries)
SMILES | Mtb H37Rv
CCC(C)NC(=S)Nc1cccc(F)c1 (centres undefined) | i
NC(=O)c1ccccc1NS(=O)(=O)c1cc(Cl)ccc1Cl | i
Cc1ccccc1C(=O)N1CC(C)N(C(=O)c2ccccc2C)CC1C (centres undefined) | i
O=C(c1csc2ccccc12)N1CCN(C(c2ccccc2)c2ccccc2)CC1 | i
COc1ccc2cc(Br)ccc2c1CC(=O)N(C)C | i
O=C(NCCC1=CCCCC1)c1cnccn1 | i
CCOC(=O)COc1ccc(C2NC(=S)NC(C)=C2C(C)=O)cc1OC (centres undefined) | i
CCOC(=O)C1=C(C)N=c2s/c(=C\c3ccc(OCc4ccc([N+](=O)[O-])cc4)c(OCC)c3)c(=O)n2C1c1ccc(C)cc1 (centres undefined) | i
Clc1cc(-n2cnnn2)ccc1-c1ccc(-n2cnnn2)cc1Cl | 2%
COC(=O)c1c(NC(=O)c2cnn3c(C(F)F)cc(-c4ccccc4)nc23)sc2c1CCC2 | i
CCCN(CCC)S(=O)(=O)c1ccc(NC(=O)c2cc(Cl)ccc2Cl)cc1 | 12%
CCOc1ccc(N(CC(=O)Nc2cc(Cl)ccc2OC)S(=O)(=O)c2ccccc2)cc1 | i
COC(=O)Cc1c(C)nc2nc(Cc3ccccc3)[nH]n2c1=O | i
CCOc1cc(C=O)c(Br)c(Cl)c1O | i
C=CCNCCCOc1ccc(C)cc1[N+](=O)[O-] | i
CCOc1ccc(-c2cc(OC(=O)c3cccs3)c3c(C)oc(C)c3c(=O)c2)cc1 | i
CC(C)CNC(=O)c1ccccc1NC(=O)C1CN(S(=O)(=O)c2ccccc2)CCN1S(=O)(=O)c1ccccc1 (centres undefined) | i
Cc1ccc(S(=O)(=O)CC(=O)c2ccc(Cl)c(Cl)c2)cc1 | 1%
O=C(NC(c1ccc(Cl)cc1)c1cc([N+](=O)[O-])c2cccnc2c1O)C1CCCCC1 (centres undefined) | i
CCN(CC)C(=O)C(=O)Nc1ccc(NC(C)=O)cc1 | i
COc1ccc(OC)c(Nc2ncnc3ccc(Br)cc23)c1 | 4%
Cc1ccc(SCC(=O)Nc2nc3c(s2)CCCC3)cc1 | 0%
C=CCNc1nc2ccccc2nc1NS(=O)(=O)c1ccc(Cl)cc1 | i
CC(C)C(NC(=O)c1ccc(Cl)cc1)c1n[nH]c(=S)n1C (centres undefined) | i
CCOC(=O)c1c(NC(=S)Nc2ccccc2C)sc2c1CC(C(C)C)OC2 (centres undefined) | i

(next part)
SMILES | Mtb H37Rv
CCCNC(=O)c1cc(I)ccc1NC(=O)c1ccco1 | i
Brc1cccc(OCCCN2CCCCC2)c1 | 2%
Cc1occc1-c1nnc2sc(-c3ccc(-c4cccc([N+](=O)[O-])c4)o3)nn12 | i
CCOc1c(Cl)cc(C(=O)Nc2sc(C(C)=O)c(C)c2C(=O)OC)cc1Cl | i
CC(=O)c1c(C)nc(-c2ccc(OCc3ccccc3)cc2)n1O | i
NC(=O)c1ccc(NC(=O)C2C3C=CC(O3)C2C(=O)O)cc1 (centres undefined) | i
CCOc1ccccc1OCCOCCN1CC(C)OC(C)C1 (centres undefined) | i
COc1ccc(C2(CNC(=O)c3ccc([N+](=O)[O-])cc3)CCCC2)cc1 | 6%
COc1ccccc1NC(=O)c1ccccc1CCc1ccccc1 | 12%
Cc1cc(C)nc(NC(=S)Nc2ccc(Br)cc2Cl)c1 | i
CCC(=O)NC(=S)Nc1cc(OC)c(Cl)cc1OC | i
COc1cc(OC)cc(N2C(=O)CC(Sc3ncn[nH]3)C2=O)c1 (centres undefined) | 1%
COc1ccc(Cc2nnc(SCC(=O)Nc3ccc(I)cc3C)o2)cc1 | i
CN1CCc2nc(SCC(=O)c3ccc(-c4ccccc4)cc3)c(C#N)c(-c3cccs3)c2C1 | 5%
COc1cc(C)ccc1OCCN1CCCC(C)C1 (centres undefined) | i
COc1ccc(C2(CNC(=O)Cc3ccc(OC)c(OC)c3)CCOCC2)cc1 | 0%
CCCn1nnc(NC(=O)c2ccc(OCC)c(Cl)c2)n1 | 0%
COC(=O)C1=C(C)NC2=C(C(=O)CC(c3ccccc3Cl)C2)C1c1ccc(C)s1 (centres undefined) | 7%
O=[N+]([O-])c1ccc(CSc2ncnc3scc(-c4ccccc4)c23)cc1 | 30%
CCCOc1ccc(C(=O)N2CCN(c3ccc(NC(=O)c4cc(OC)cc(OC)c4)cc3Cl)CC2)cc1 | 8%
COc1ccc(NC(=O)c2cccs2)cc1C(=O)N1CCN(c2ccccc2)CC1 | i
CCC(CC)C(=O)Nc1cc(NC(=O)C(CC)CC)cc(C(=O)O)c1 | i
S=C(c1ccc(-c2cc(Cl)ccc2Cl)o1)N1CCOCC1 | 8%
NC(=O)c1ccccc1NC(=O)CN(c1cccc([N+](=O)[O-])c1)S(=O)(=O)c1ccccc1 | i
COc1cc(NC(=S)N2CCN(Cc3ccccc3)CC2)cc(OC)c1 | i

(more compounds)
SMILES | Mtb H37Rv
Cc1cc(C)c(Cn2cnc3ccccc32)c(C)c1 | 40%
CCOCCC(=O)NCCc1ccccc1 | i
CCC(Oc1ccccc1)C(=O)Nc1nnc(C(F)(F)F)s1 (centres undefined) | i
Cc1cc(OCC(=O)NC2CCCC2)c(C)cc1Br | 44%
S=C(NCCSc1ccc(Cl)cc1)NC1CC1 | ?
Fc1ccccc1NC(=S)Nc1ccccc1-c1ccccc1 | i
Cc1cc(Sc2ccccn2)c2ccccc2n1 | i
CCCOc1ccc2ccccc2c1CO | 8%
O=C(NCc1ccc2c(c1)OCO2)Nc1ccc(Br)cc1 | i
O=C(Nc1ccncc1)c1cccc(C(F)(F)F)c1 | i
O=S(=O)(c1cccc(C(F)(F)F)c1)N1CCN(S(=O)(=O)c2cccc(C(F)(F)F)c2)CC1 | i
CC(C)NC(=O)c1ccccc1NC(=O)c1ccc(N(C)S(=O)(=O)c2ccccc2)cc1 | i
O=C(CCCOc1ccc(Cl)cc1)Nc1cccc(Br)c1 | 13%
O=C(NC1CCCCC1)c1cccc(N2C(=O)c3cccc4c([N+](=O)[O-])ccc(c34)C2=O)c1 | 0.39µg/mL*
COC(=O)c1sc(NC(=O)c2ccc(Br)s2)nc1C | i
COc1cc2c(cc1OC)CN(S(=O)(=O)c1cccc(Cl)c1)CC2 | i
COc1ccc(F)cc1S(=O)(=O)n1cnc2cc(C)c(C)cc21 | i
CCOC(=O)C1CCCN(C(=S)NC2CC2)C1 (centres undefined) | i
CC(=O)Oc1cccc2ccc(/C=C/c3ccccc3OCc3ccccc3)nc12 | 26%
CC1CCCCN1C(=O)c1cccc(Cl)c1 (centres undefined) | i
NC(=O)c1c(NC(=O)c2ccc3c4c(cccc24)CC3)sc2c1CCCC2 | i
O=c1cc(Nc2ccccc2)[nH]c2s[nH]c(=O)c12 | 1%
COc1ccc(C2c3cc(OC)c(OC)cc3CC(=O)N2NC(=O)c2ccco2)cc1 (centres undefined) | i
COc1ccc(OC)c(N(CC(=O)Nc2cccc([N+](=O)[O-])c2)S(=O)(=O)c2ccccc2)c1 | i
O=S(=O)(Oc1cc(Cl)ccc1Cl)c1ccc(Br)cc1 | 1%

Next section.
SMILES | Mtb H37Rv
Cc1sc2ncnc(N3CCN(CCOc4ccc(Cl)cc4)CC3)c2c1C | i
CCOC(=O)c1c(-c2ccc(F)cc2)csc1NC(=O)c1ccoc1C | i
COc1ccc(CCN2C(=O)N(c3ccc(F)cc3)C(=O)C2CC(=O)Nc2ccc(OC)cc2)cc1 (centres undefined) | 0%
COc1ccc(NC(=O)c2oc3ccc(F)cc3c2C)cc1Cl | 2%
O=C(Nc1ccc(NC(=O)C2CC2)cc1)C1CC1 | i
O=C1NC2CCCCC2NC1CC(=O)N1CCN(C(c2ccccc2)c2ccccc2)CC1 (centres undefined) | i
CCCCOc1ccccc1NC(=O)c1cccnc1 | 7%
O=C(COc1ccc(Br)cc1)Nc1ccc(S(=O)(=O)N2CCc3ccccc32)cc1 | 1%
CCOc1ccc(C(C)NC(=S)Nc2ccc(S(N)(=O)=O)cc2)cc1 (centres undefined) | i
COc1cccc(C(=O)O/N=C(\N)c2cccnc2)c1OC | i
COc1ccccc1N1CCN(C(=O)c2ccccc2CCc2ccccc2)CC1 | 3%
Oc1ccc(Nc2nc(-c3ccccc3F)nc3ccccc23)cc1 | 4%

By substructure, the compounds so far containing an NH in an aromatic ring.
SMILES | Mtb H37Rv
CC(C)(C)c1ccc(C(=O)Nc2nc3ccccc3[nH]2)cc1 | <0.1µg/mL*
COC(=O)Cc1c(C)nc2nc(Cc3ccccc3)[nH]n2c1=O | i
CC(C)C(NC(=O)c1ccc(Cl)cc1)c1n[nH]c(=S)n1C (centres undefined) | i
COc1cc(OC)cc(N2C(=O)CC(Sc3ncn[nH]3)C2=O)c1 (centres undefined) | 1%
O=c1cc(Nc2ccccc2)[nH]c2s[nH]c(=O)c12 | 1%

Screens deposited in PubChem BioAssay by Southern Research Institute.

The list is partial; count on the stated rates, not on these rows.
